Sa RN4220 lethal: kills Staphylococcus aureus RN4220; S. aureus RN4220 growth, OD600, 16 h; inhibition, % (no concentration beside the values); 330,000 tested, 0.33% active; AID 1259311;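 active = z-score of -3 or lower and OD600 up to 0.18 on both plates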;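 also: plate controls were untreated cells for no effect and reference antibiotic for full effect; stock transfer was 100 nL into about 80 µL; one replicate is shown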
BJeLR viability: BJeLR cell viability loss; BJeLR (HRASV12) viability, CellTiter-Glo ATP luminescence, 48 h; reference of the scale not given here; AID 1554; inhibition, % (test concentration not listed); 300,000 tested, 0.17% active;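 active = replicate mean above 50%; inconclusive = above 50% but judged a plate artefact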;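 also: 50 nL library stock added to about 25 µL; numbers are from one replicate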
ugtP null kill: kills S. aureus RN4220 lacking UgtP. S. aureus RN4220 ugtP deletion, OD600 growth, 16 h; some inactives read as strong as hits. 330,000 tested, 0.54% active. growth inhibition, % (concentration not given with the values);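 active = z-score under -3 and OD600 up to 0.15 on both plates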;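 also: plate controls were untreated wells for no effect and antibiotic for full effect; wells of about 80 µL received 100 nL stock; the first replicate is given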
PrP 5UTR inh: suppresses PrP 5' UTR mRNA reporter expression; cell-based PrP 5' UTR mRNA reporter, plate reader; inhibition, % (test concentration not listed); 340,000 tested, 0.35% active;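 active = every replicate at 50% or more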;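 also: 0 = median of the neutral control wells; tested in H4 reporter cells; numbers are from one replicate; inactives centre near -14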
Autofluor counter: flagged as autofluorescent in microsphere protease counterscreen; compound autofluorescence counterscreen, microsphere flow cytometry; stronger effect = higher value; fluorescence intensity (no concentration beside the values); 360,000 tested, 3.1% active;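 active = at least 3 SD above the mean of all compounds, about 16000 in these data; inconclusive = too few beads counted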;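 also: 100 nL of 1 mM stock went into each well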
Mtb hypoxia rep: inhibitors of hypoxia-regulated fluorescent reporter in Mycobacterium tuberculosis; M. tuberculosis hypoxia-regulated fluorescent reporter, fluorescence; fluorescence inhibition, % (no concentration beside the values); 300,000 tested, 0.1% active; AID 1159583;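 active = 35 to 45% if threefold the growth effect, above 45% if 1.5-fold the growth effect; inactive = the rest, general growth blockers included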;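 also: wells of about 50 µL received 100 nL stock; 0% = vehicle wells and 100% = reference inhibitor wells; whole bacteria with a GFP reporter of the hypoxia response; strong numbers were not always called active; many hits fall short of the cut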
Mtb hypoxia rep growth: also measured in Mtb hypoxia rep; calls as there; growth inhibition, %; measured here: M. tuberculosis growth (absorbance);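 0% = vehicle and 100% = reference antibiotic; read after six days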
Starred values were filed as active, the others as inactive; ? = inconclusive; . = no result given.

Every second line gives: Sa RN4220 lethal	BJeLR viability	ugtP null kill	PrP 5UTR inh	Autofluor counter	Mtb hypoxia rep	Mtb hypoxia rep growth
- N#Cc1ccc(Sc2ccccn2)c([N+](=O)[O-])c1
    4.2	3	2	-23	4256	16	17
- CCOc1ccc(N(C(=O)CNS(=O)(=O)c2ccccc2)C(CC)C(=O)NCc2ccco2)cc1 (configuration not stated)
    2.8	-1	2	-27	3727	9	2
- CCS(=O)(=O)N1CCN=C1SCc1ccc(F)cc1
    4.2	5	6	-17	6041	6	4
- Cc1cccc(NC(=O)c2c(C)cc(=O)oc2C)n1
    2.4	-5	9	-16	13104	7	6
- CC(=NNC(N)=S)C1(C)CCCCC1
    2.2	.	8	.	.	21	3
- Cc1cc(=O)oc2c(CN3CCN(CCO)CC3)c(O)ccc12
    -3.7	-5	-2	-1	4620	-9	9
- CCOC(=O)N1CCC(Nc2c(NCCCN3CCN(c4ccc(OC)cc4)CC3)c(=O)c2=O)CC1
    0.6	3	3	-6	3989	11	7
- O=C1Nc2ccccc2C12OC1CCCCC1O2 (configuration not stated)
    5.7	7	-1	11	7926	0	8
- O=C(COc1ccc2c(c1)CCC2)NCc1ccc(Cl)cc1
    -1.6	-9	13	-11	2582	-1	-3
- CCCCn1c(N)c(N(CC(C)C)C(=O)c2ccco2)c(=O)[nH]c1=O
    1.5	-1	4	-12	5206	7	3
- Cc1cccc2cc(C#N)c(SCCN3CCCCC3)nc12
    -2.5	2	2	.	.	-82	-13
- Cc1cc(N2CCN(S(=O)(=O)c3ccc4ccccc4c3)CC2)n2ncnc2n1
    4.5	-7	4	-14	3380	-1	6
- Cc1nc2nc(-c3ccccc3)cc(=O)n2[nH]1
    6.3	6	1	-24	8449	8	12
- COC(=O)c1cnc(NNC(=O)c2ccc([N+](=O)[O-])cc2)nc1C(F)(F)F
    6.5	-1	6	-17	5866	15	9
- CC1(C)Cc2c(c(N3CCOCC3)nc3sc4c(NCCN)ncnc4c23)CO1
    2.6	.	1	7	5029	9	1
- CCOc1ccc(NC(=O)CCN2C(=O)CSc3ccccc32)cc1
    2.6	.	5	-17	4104	6	11
- Cc1ccccc1Nc1cc(C(=O)NCc2ccco2)c2ccccc2n1
    0.5	-2	-10	-10	2419	-7	4
- Cc1ccc(C)c(-n2c(SCC(=O)NC(C(=O)O)C(C)C)nnc2-c2cccc(Cl)c2)c1 (configuration not stated)
    1.1	4	-6	-20	4626	-11	3
- O=C(Nc1cccc(F)c1)c1cccnc1NCCc1ccccc1
    -5.4	-12	73	-6	2513	14	8
- C/C(=C\C(=O)Nc1nccs1)c1ccccc1
    2.3	-5	7	-107	17209*	4	5

Part of the list above in order of heavy-atom count, rising:
Every second line gives: Sa RN4220 lethal	BJeLR viability	ugtP null kill	PrP 5UTR inh	Autofluor counter	Mtb hypoxia rep	Mtb hypoxia rep growth
- O=C(COc1ccc2c(c1)CCC2)NCc1ccc(Cl)cc1
    -1.6	-9	13	-11	2582	-1	-3
- Cc1cc(=O)oc2c(CN3CCN(CCO)CC3)c(O)ccc12
    -3.7	-5	-2	-1	4620	-9	9
- CCCCn1c(N)c(N(CC(C)C)C(=O)c2ccco2)c(=O)[nH]c1=O
    1.5	-1	4	-12	5206	7	3
- COC(=O)c1cnc(NNC(=O)c2ccc([N+](=O)[O-])cc2)nc1C(F)(F)F
    6.5	-1	6	-17	5866	15	9
- CC1(C)Cc2c(c(N3CCOCC3)nc3sc4c(NCCN)ncnc4c23)CO1
    2.6	.	1	7	5029	9	1
- CCOc1ccc(N(C(=O)CNS(=O)(=O)c2ccccc2)C(CC)C(=O)NCc2ccco2)cc1 (configuration not stated)
    2.8	-1	2	-27	3727	9	2

(further entries)
Every second line gives: Sa RN4220 lethal	BJeLR viability	ugtP null kill	PrP 5UTR inh	Autofluor counter	Mtb hypoxia rep	Mtb hypoxia rep growth
- C1=C(c2ccccc2)Nc2ccccc2N=C1c1ccccc1
    -6.1	-13	37	0	2381	4	11
- Cc1ccc(S(=O)(=O)NN=Cc2cccc(OC3CSC3)c2)cc1
    48	.	4	.	.	11	9
- N=c1c2c3c(sc2ncn1Cc1ccccc1)CCCC3
    2.1	-1	4	-4	2551	-5	4
- CCOC(=O)c1oc2nc(C(C)C)c3c(c2c1N)CCC3
    3.1	-5	-4	-12	9394	8	18
- COc1ccc(S(=O)(=O)N2CCC(C(=O)N[C@@H](C)C(=O)N3CCCCCC3)CC2)cc1
    -0.7	-6	-4	-29	5520	-1	7
- S=C(Nc1ccc(Cl)cc1)Nc1cccc2cnccc12
    -2.1	15	-16	-32	2114	1	-5
- CCCCNS(=O)(=O)c1ccc2nc(-c3cccnc3)cc(C(=O)NCC(OC)OC)c2c1
    1.1	2	2	-14	3827	0	3
- Cc1ccccc1CN(C)CC(=O)Nc1c(C)cccc1C(C)C
    7.3	-2	4	-5	4906	11	-1
- O=C(Nc1nnc(S(=O)(=O)N2CCCC2)s1)c1cccc([N+](=O)[O-])c1
    4.5	-4	5	-20	5566	.	.
- O=C(Nc1ccccc1)C1=C[C@@H](c2ccc(C(F)(F)F)cc2)C[C@@H](OCCCCO)O1
    .	-1	.	-9	3691	.	.
- O=C(Nc1ccc(F)cc1)Nc1ccc(NC(=O)c2ccccc2O)cc1
    0.6	5	-5	.	3676	-7	-6
- COc1ccc(-c2cc(C(F)(F)F)c3c(N)c(C(=O)NCCSC)sc3n2)cc1
    3.8	-6	8	-15	6679	0	0
- Cn1c(CS/C(N)=N/N=C/c2ccccc2)c(Br)c(=O)n1-c1ccccc1
    .	6	.	-7	2598	.	.
- C=CCCCCCCCCc1nc(SCC(=O)O)n[nH]1
    3.6	2	5	-21	4743	-4	-6
- COc1cccc(C2C(C(=O)c3sc(C)nc3C)=C(O)C(=O)N2CCN2CCOCC2)c1 (configuration not stated)
    1.1	6	0	-4	2659	.	.
- COc1ccc2cc3cc(C(=O)N4CCN(Cc5ccc6c(c5)OCO6)CC4)oc3nc2c1
    -11	-1	-8	-18	3584	.	.
- CCCCOc1ccccc1C1CC(=O)NC2=C1C(=O)CCC2 (configuration not stated)
    1.3	-2	-3	-9	4553	.	.
- CCOC1(C(F)(F)F)NC(=O)N(Cc2ccc(OC)cc2)C1=O (configuration not stated)
    9.2	-5	-4	-26	19545*	13	4
- Cc1ccc(S(=O)(=O)N2CCN(CC(=O)NN=Cc3ccco3)CC2)cc1
    2.6	.	13	.	.	-2	4
- CN1CCN(NC(=O)c2cn(-c3ccccc3)nc2-c2cccc(Br)c2)CC1
    -3.9	0	-1	-20	4296	5	11
- Cc1ccc(N(Cc2ccccc2)C(=O)c2cccc(S(=O)(=O)N3CC(C)OC(C)C3)c2)cc1 (configuration not stated)
    -1.7	-8	-3	-27	4624	2	-7
- CC(=O)N[C@@H](Cc1c[nH]c2ccccc12)C(=O)NC1CC1
    0.9	1	12	-23	4161	3	-3
- COc1ccc(C(O)Cc2nc3ccccc3n2C)cc1OC (configuration not stated)
    0.5	4	2	-17	2407	12	5
- COc1ccc(C(=O)COC(=O)CCN=C2NS(=O)(=O)c3ccccc32)c(OC)c1
    4.3	5	-5	4	.	0	-5
- CCOC(=O)Cc1csc(NC(=O)c2cccc(OC)c2)n1
    -3.6	-2	3	-32	2549	.	.
- COc1cc(C=NNC(=O)CC#N)ccc1OC/C=C/c1ccccc1
    -0.7	.	7	.	.	8	3
- CCN(C(=O)COC(=O)c1cc(S(=O)(=O)N2CCc3ccccc32)ccc1OC)C1CCS(=O)(=O)C1 (configuration not stated)
    4.6	-1	0	-6	4452	3	4
- Cc1cc(SCC(=O)NCC(c2cccs2)N2CCOCC2)c(C)cc1Br (configuration not stated)
    6.7	-9	-4	-21	?	-4	7
- CCCC1C(c2ccc(OC)cc2)C(C#N)(C#N)C2(C#N)CC1(N)NC2=O (configuration not stated)
    3.0	2	-2	-25	20036*	7	9
- CC(/C=C/c1ccccc1)=N\NC(=S)NC(C)C
    .	1	.	-23	4603	.	.
- Cc1ccc(C(C(=O)NC2CCCC2)N2CCCCC2)cc1 (configuration not stated)
    6.3	5	4	-7	5637	7	2
- CC(=O)c1cccc(NS(=O)(=O)c2cc3c(cc2C)N(C(C)=O)CCO3)c1
    2.2	0	2	6	6118	4	4
- CCCCc1c(C)c2ccc(OC)c(C(C)=NO)c2oc1=O
    -27	.	5	.	.	1	3
- CCn1c(CCC(N)=O)nnc1SCC(=O)c1cc(C)n(C2CC2)c1C
    4.8	.	5	-11	7687	1	-3
- CCOc1ccc(CN2CCN(C(=O)c3ccccc3)CC2)cc1
    -0.7	-1	-1	14	5323	8	5
- COc1ccc(C(=O)Nc2ccc(Cl)c(S(=O)(=O)N3CCOCC3)c2)cc1
    1.0	.	-7	-16	3910	14	11
- C=CCn1c(COc2ccc(CC)cc2)nnc1SC/C(O)=C(\C#N)c1nc2ccccc2[nH]1
    .	-1	.	-7	4617	.	.
- Cc1nn(-c2ccccc2)c(Cl)c1C(=O)NCC1CCCO1 (configuration not stated)
    2.6	.	7	9	2971	1	5
- CCc1c(C)nc(SCC(=O)Nc2ccc(Br)cc2)[nH]c1=O
    8.6	2	3	15	4344	12	5
- O=C(CC1c2ccccc2Oc2ccccc21)Nc1ccccc1C(F)(F)F
    12	-9	-2	-5	2680	-4	-2
- NS(=O)(=O)c1ccc(NC(=O)/C(=C/c2ccncc2)NC(=O)c2ccccc2)cc1
    3.1	-8	1	-1	3728	2	20
- Cc1ccc(S(=O)(=O)N2CCN(C(=O)CSc3nc4ccccc4o3)C2)cc1
    -2.2	-3	8	4	2655	.	.
- CCOCCOC(=O)C1=C(C)N(C)C(=O)NC1c1ccccc1F (configuration not stated)
    0.4	-1	-4	-25	8409	-6	15
- COC(=O)c1scc(C)c1NC(=O)C1CCCCC1
    2.6	14	11	-6	3634	9	-1
- O=c1c(-c2ccc(F)cc2)[n+]([O-])c2ccccc2n1OCc1ccccn1
    5.5	-4	2	-14	4789	13	4
- COC(=O)c1ccccc1CSc1nsc(/C=C/N(C)C)c1C#N
    4.2	-1	10	-20	3900	0	2
- CCn1ncc([N+](=O)[O-])c1C(=O)N1CCCC1
    -1.7	-2	9	-15	2101	.	.
- COc1ccc(Cl)cc1NC(=S)Nc1cccnc1
    2.1	6	10	-22	4644	12	6

Entries above that have a COOH group (two):
Every second line gives: Sa RN4220 lethal	BJeLR viability	ugtP null kill	PrP 5UTR inh	Autofluor counter	Mtb hypoxia rep	Mtb hypoxia rep growth
- Cc1ccc(C)c(-n2c(SCC(=O)NC(C(=O)O)C(C)C)nnc2-c2cccc(Cl)c2)c1 (configuration not stated)
    1.1	4	-6	-20	4626	-11	3
- C=CCCCCCCCCc1nc(SCC(=O)O)n[nH]1
    3.6	2	5	-21	4743	-4	-6
